ClpP mod: qHTS Assay for Activators of ClpP | Potency, µM (series often up to 57.5 µM), without a hit: top-dose activity change, negative = active | 340,000 tested, 1.9% active | purified B. subtilis ClpP, FRET peptide cleavage, 20 min | ATP-dependent Clp protease proteolytic subunit (Bacillus subtilis (strain 168)), P80244; active = well fitted falling curve with a large enough effect; inconclusive = small, poorly fitted or top-dose-only effect; inactive = no such curve, though single readings can be large or run the other way; further: potency means the concentration at half of the fitted maximal effect; the source files actives as falling curves though it sought activators and does not explain the sign; nearly all actives have a fitted effect of over 65% in size; many hits overshoot -100%
Target sequence (P80244 whole entry, looked up): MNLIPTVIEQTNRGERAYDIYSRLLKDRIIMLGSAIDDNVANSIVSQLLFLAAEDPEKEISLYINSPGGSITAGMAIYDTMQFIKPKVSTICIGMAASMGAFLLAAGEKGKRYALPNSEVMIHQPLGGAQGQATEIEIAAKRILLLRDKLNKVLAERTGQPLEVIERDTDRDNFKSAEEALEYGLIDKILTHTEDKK
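FRET quenching reversal measured ClpP activation: 10 microg/mL B. subtilis ClpP at pH 8 with the FRET-FV decapeptide, read at 430 nm after 320 nm excitation. The 20-min minus 0-min signal was scaled between DMSO/no-enzyme wells and ADEP (5.8 microM final).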
Sfp inh: qHTS Assay for Inhibitors of Bacillus subtilis Sfp phosphopantetheinyl transferase (PPTase); AID 1490, 2009; 4'-phosphopantetheinyl transferase ffp (Bacillus subtilis), Q9F4F7; Biochemical Sfp PPTase activity, qHTS; 310,000 tested, 3.5% active; Potency, µM, for the others: max response, negative = inhibition, hits mostly inhibitors; active means well fitted inhibition curve with a large enough effect; inconclusive means small, poorly fitted or top-dose-only effect, or another doubt; inactive means no such curve, though single readings can be large or run the other way;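 further: the enzyme is Sfp with the accession as filed and its product quenches rhodamine fluorescence; potency means the concentration at half of the fitted maximal effect; 0% = enzyme reaction without inhibitor and -100% = no enzyme wells; top concentration of the series not given in the record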
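Compounds were incubated with enzyme (final 15 nM) for 15 min at room temperature before substrate addition started the reaction. Fluorescence at 525 nm excitation, 598 nm emission was recorded immediately and after 30 minutes.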
gsp antag: qHTS for Antagonists of gsp, the Etiologic Mutation Responsible for Fibrous Dysplasia/McCune-Albright Syndrome: qHTS | gsp-mutant cells, cAMP HTRF, 30 min; control for the full effect not named in the record | Potency, µM (series often up to 76.9 µM), for the others: at the highest dose activity change, negative = inhibition, hits mostly inhibitors | 340,000 tested, 0.4% active | AID 624288, 2012; active = falling curve of any shape with a large fitted effect; inconclusive = falling curve, mostly with a smaller effect; inactive = flat or rising curve; cell line not stated here;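 further: intracellular cAMP measured with PDE inhibitor Ro 20-1724 present during compound exposure; potency means the concentration at half of the fitted maximal effect; on the % scale 0 is the no-effect control and ±100 the full control effect; nearly all actives have a fitted effect of over 65% in size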
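Measurement of cellular cAMP by homogeneous time-resolved fluorescence following a 30 min compound exposure at 37C. The PDE inhibitor […] was present throughout; the assay buffer was DPBS with 0.05% BSA and 0.005% Tween 20.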
gsp ag: qHTS for Agonist of gsp, the Etiologic Mutation Responsible for Fibrous Dysplasia/McCune-Albright Syndrome: qHTS; gsp mutant cells, cAMP HTRF, 30 min; control for the full effect not named in the record; 340,000 tested, 0.13% active; Potency, µM (doses to about 76.9 µM), for inactives: top-dose activation (cAMP increase), actives largely listed as activators; active = well fitted activation curve with a large enough effect; inconclusive = small, poorly fitted or top-dose-only effect, or another doubt; inactive = no such curve, though single readings can be large or run the other way; cell line not stated here;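 further: phosphodiesterase inhibitor Ro 20-1724 added with compounds to block cAMP breakdown; potency means the concentration at half of the fitted maximal effect; nearly all actives have a fitted effect of over 60% in size; about a fifth of the inactives were tested at one dose only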
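Cells in DMEM/10% FBS with G418 were pretreated with compounds in DMSO plus […] (300 uM stock) for 30 min at 37C. cAMP was measured by HTRF (cAMP-d2 plus anti-cAMP antibody-K) after 30 min at room temperature.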
Menin MLL FP FL: qHTS Assay for Inhibitors Targeting the Menin-MLL Interaction in MLL Related Leukemias: Competition With Fluorescein Labeled MLL-derived Peptide; FP activity change, % at 61.4 µM; Fluorescence polarization, fluorescein-MLL peptide displacement from menin; AID 1766, 2009; 290,000 tested, under 10 active; inconclusive = falling polarisation curve, or a change in total fluorescence; inactive = total fluorescence flat and polarisation flat or rising; no compound was filed as active; the % refers to the polarisation; negative = inhibition;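 further: % of control where 0% means no effect; inhibitors lower the polarisation; unlabelled MLL peptide was the positive control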
PINK1 modulator: A Quantitative High throughput Screen to Identify Chemical Modulators of PINK1 Expression | AID 624263, 2012 | 410,000 tested, 0.2% active | PINK1 immunofluorescence, high-content cytometry, 24 h | Potency, µM (doses to about 76.6 µM), inactives show top-dose activation (PINK1 increase), usual class: activators; active = well fitted activation curve with a large enough effect; inconclusive = small, poorly fitted or top-dose-only effect; inactive = flat fitted curve, though single readings scatter; cell line not stated here;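 further: potency means the concentration at half of the fitted maximal effect; % of control where 0% means no effect; nearly all actives have a fitted effect of over 65% in size; a mitochondrial uncoupler was the plate control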
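Readout is PINK1 immunofluorescence, quantified alongside mitochondrial, cell and nuclear markers by laser-scanning microplate cytometry. Cells from a stable line were exposed to compound titrations (5 concentrations) for 24 hours, with CCCP controls.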
D2 agonist: Beta-Arrestin HTS for Positive Allosteric Modulators of the Human D2 Dopamine Receptor: Agonists. activation, % (no concentration beside the values). D(2) dopamine receptor (Homo sapiens), P14416. AID 624465, 2012. 360,000 tested, 0.084% active. DiscoveRx PathHunter D2 beta-arrestin, luminescence, 90 min; 100% = 57 uM dopamine signal; in the data active = activation above about 40%; inconclusive = about 15% to 40%; inactive = below about 15%; further: compound concentration not given in the record; the text of the record calls up to 30% inactive
Target sequence (P14416 whole entry, looked up): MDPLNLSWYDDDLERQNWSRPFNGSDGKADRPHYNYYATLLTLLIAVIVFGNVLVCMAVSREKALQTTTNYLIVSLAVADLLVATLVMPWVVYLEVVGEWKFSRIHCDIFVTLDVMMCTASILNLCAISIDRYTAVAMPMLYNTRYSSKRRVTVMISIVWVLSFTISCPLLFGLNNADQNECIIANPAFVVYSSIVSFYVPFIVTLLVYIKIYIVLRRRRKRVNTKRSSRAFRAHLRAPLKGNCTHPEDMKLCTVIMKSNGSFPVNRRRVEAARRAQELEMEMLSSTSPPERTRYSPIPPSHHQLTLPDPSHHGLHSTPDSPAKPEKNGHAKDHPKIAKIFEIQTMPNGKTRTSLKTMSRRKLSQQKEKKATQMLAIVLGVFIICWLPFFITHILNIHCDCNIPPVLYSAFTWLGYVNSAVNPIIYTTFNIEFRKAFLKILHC
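Agonist mode: compounds alone added to overnight-plated D2 PathHunter cells for 90 min at 37 C, with 57 uM final dopamine (EC100) defining full response. Beta-arrestin recruitment detected by chemiluminescent reagent, read after 1 h at ambient temperature.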
Active calls of the source: *; ? = inconclusive; nt = no result given; [ ] = dose if it differs, or a comment.

Each structure is followed by: ClpP mod, Sfp inh, gsp antag, gsp ag, Menin MLL FP FL, PINK1 modulator, D2 agonist
(1) O=C(COC(=O)c1ccc(S(=O)(=O)C(F)F)cc1)NC(=O)NC1CCCCC1
 : 1.0%, nt, -1%, -31%[inhibitor], nt, -0.4%, -5.0
(2) O=C(O)CCCC(=O)N1N=C(c2ccccc2)CC1c1ccc2nccnc2c1 (centres undefined)
 : -2.1%, 2%, 15%, ?, 8.4, 1.5%, -0.4
(3) C=CCn1c(O)c(N=Nc2ccccc2)c2ccccc21
 : nt, -13%, -1%, -4%, 6.5, 3.4%, -2.7
(4) CC1=NN(C(N)=S)C(C)(C)C1
 : 2.2%, ?, 12%, -36%[inhibitor], 3.6, 2.6%, -3.2
(5) CCOC(=O)C1=C(C)Nc2ncnn2C1c1cc(OC)ccc1OC (centres undefined)
 : -1.3%, 7%, -19%, -3%, 4.0, 2.2%[38.3 µM], -2.8
(6) CCC(C)(C)NC(=O)C(c1ccncc1)N(C(=O)Cn1nnc2ccccc21)c1cc2c(cc1C(C)=O)OCO2 (centres undefined)
 : nt, 7%, 11%, 1%[15.4 µM], -1.0, -0.6%, -1.2
(7) Cc1cc(Br)c(S(=O)(=O)NCc2cccnc2)cc1C
 : 2.7%, 19%, 4%, -15%, -7.3, 5.7%, -5.5
(8) O=C(NCc1cccs1)c1cc(-c2cccc(Cl)c2)on1
 : -0.4%, 6%, 1%, 19%, -0.5, 27%[38.3 µM], 0.7
(9) CCCCCCOc1ccc(OC(=O)c2ccncc2)cc1
 : -0.4%, 12%, 11%, -17%, 2.6, -1.4%, -1.2
(10) Cc1ccc(C(=O)N2CCN(S(=O)(=O)c3ccc(C)cc3)CC2)cc1
 : nt, 6%, 1%, -5%, 2.5, -0.1%, 0.5
(11) COCCCNC(=O)NC(=O)c1ccccc1
 : -2.3%, 13%, 17%, -3%, 2.9, 5.2%, -2.6
(12) COc1ccc(NC(=O)CS(=O)CC(=O)Nc2ccc(OC)c(OC)c2)cc1 (centres undefined)
 : -1.4%, 10%, 10%, 7%, 2.9, 6.2%[38.3 µM], -0.4
(13) CCc1[nH]nc(C(=O)N2CCCC(C(=O)c3cccc(OC(C)C)c3)C2)c1C (centres undefined)
 : -3.6%, 8%, -16%, -7%, nt, 0.7%, -2.1
(14) COn1c(-c2ccccc2)nc2c1CCc1c-2no[n+]1[O-]
 : 3.3%, 19%, -6%, 34%, -0.3, -3.1%, -0.3
(15) Cc1cnn(C(=O)c2cc(-c3ccccn3)nc3ccc(Cl)cc23)c1
 : nt, -29%, -6%, -8%[15.4 µM], -24, 2.9%, 3.0
(16) O=C(NCC1CCCO1)C1CCN(C2CCN(Cc3ccco3)CC2)CC1 (centres undefined)
 : nt, 19%, 6%, 4%, -0.9, -0.7%, -2.4
(17) CC1=C(C(=O)N2CCCCCC2)CC(CC(=O)NCc2ccco2)C(=O)N1Cc1ccccc1 (centres undefined)
 : 1.3%, nt, nt, nt, nt, -0.9%, -5.1
(18) CCCCn1c(SCC(=O)NCc2ccco2)nnc1-c1ccoc1C
 : -2.5%, -6%, -11%, 15%, 14, -1.3%, -2.5
(19) COc1cccc(-c2cc(C(=O)Nc3ccccc3)c3ccccc3n2)c1
 : nt, nt, -10%, -5%[15.4 µM], nt, 7.8%, 2.9
(20) N#C/C(=C\c1c[nH]c2ccccc12)C(=O)Nc1ncc(Cc2ccc(Cl)cc2Cl)s1
 : 1.4%, -5%, 5%, -7%, ?, 3.9%, -9.6

More compounds follow:
Each structure is followed by: ClpP mod, Sfp inh, gsp antag, gsp ag, Menin MLL FP FL, PINK1 modulator, D2 agonist
(21) COc1ccc(CCNC(=O)c2cccnc2)cc1OC
 : -0.4%, 0%, -5%, -8%, -1.2, 2.6%[38.3 µM], -1.2
(22) COC(=O)CSc1nnc(SCc2ccccc2)s1
 : 0.1%, 10%, -18%, -49%[inhibitor], 1.7, nt, -2.2
(23) CC(C)(C)C(=O)Nc1ccc(/C=C/C(=O)c2ccco2)cc1
 : -0.6%, -1%, -14%, 9%[15.4 µM], -1.1, -1.7%, 4.0
(24) COc1ccccc1CNc1ncnc2ccc(-c3ccccc3C#N)cc12
 : nt, 4%, nt, nt, 0.7, 0.6%, nt
(25) CC(=O)n1cc(/C=N/NC(=O)c2ccccc2Cl)c2ccccc21
 : -2.6%, 5%, -17%, -16%, -5.1, 1.3%, -0.2
(26) CCOc1ccc(NC(=S)Nc2cccc3cnccc23)cc1
 : 0.9%, ?, 6%, ?, 10, 1.5%, -2.4
(27) COc1cc(OC)cc(C(=O)N2CCN(C3CCCCC3)CC2)c1
 : nt, -13%, 1%, -2%, 0.8, -0.5%, -1.7
(28) Cc1ccc(S(=O)(=O)NCCC(=O)Nc2ncccc2O)cc1C
 : -0.7%, nt, 3%, -43%[inhibitor], nt, 1.7%, -2.0
(29) Cc1cc(C(=O)N/N=C2/CC(C)CC(C)(C)C2)c(C)o1 (centres undefined)
 : nt, -8%, -11%, -3%[15.4 µM], -3.6, -0.5%, -18
(30) CCO[C@H]1OC(C(=O)NCc2ccccc2)=C[C@@H](C)[C@@H]1CCCO
 : 0.7%, 12%, -5%, nt, -1.6, 1.0%, -0.8
(31) O=C(C[C@H]1C[C@H](C(=O)N2CCCCC2)[C@@]2(CCc3ccccc3)c3[nH]c4cc(-c5ccco5)ccc4c3CCN2C1=O)NCc1cccc(C(F)(F)F)c1
 : 4.2%, nt, -5%, nt, nt, 2.1%, -2.4
(32) Cc1nn(-c2ccccc2Cl)c(Cl)c1/C=C(\C#N)C(N)=O
 : 28%, -5%, -23%, -10%, 9.3, 3.8%, 4.2
(33) CCOCCCn1c(=S)[nH]c2cc(C(=O)NCC(OC)OC)ccc2c1=O
 : -2.4%, -16%, -5%, 5%, 2.8, -0.1%, 5.2
(34) Cn1c(=O)c2cc(NC(=O)Cc3ccccc3F)ccc2n1C/C=C/c1ccccc1
 : 4.9%, nt, nt, nt, nt, 3.4%, 9.2
(35) Cc1ccc(/C=C/C(=O)N2CCN(S(=O)(=O)/C=C/c3ccccc3)CC2)o1
 : 1.9%, 7.9µM*, 1%, -39%, 3.8, 0.5%, -8.2
(36) O=[N+]([O-])c1ccc2c(c1)nc1n2CCCCC1
 : nt, 11%, -3%, 29%, -1.9, 2.8%, 2.9
(37) O=C(CN1C(=O)NC2(CCCC2)C1=O)OCc1ccc(Cl)cc1Cl
 : 1.4%, nt, 13%, -63%[inhibitor], nt, 1.0%, -2.0
(38) O=C(Nc1ccc(OC(F)(F)F)cc1)c1cccc(-n2cnnn2)c1
 : 0.8%, nt, -11%, 2%, nt, 11%, -0.9
(39) O=C(CSCc1ccc(Cl)cc1Cl)Nc1nccs1
 : 2.3%, 6%, ?, 1%, 2.2, 1.7%, -3.4
(40) Cc1cccc(NC(=O)CCCNC(=O)c2ccc(Cl)cc2)n1
 : 1.2%, 16%, 11%, -3%[15.4 µM], nt, 4.6%, -2.9

Next section
Each structure is followed by: ClpP mod, Sfp inh, gsp antag, gsp ag, Menin MLL FP FL, PINK1 modulator, D2 agonist
(41) CCCc1cc(=O)oc2c(CN3CCN(C)CC3)c(O)ccc12
 : 3.9%, -2%, 5%, 19%, -0.3, 1.1%, -3.9
(42) O=C(Nc1ccc(Cl)cc1)c1csc(Cc2ccccc2)n1
 : -0.5%, 0%, 5%, 1%, 4.5, 0.2%, -5.5
(43) O=C(c1ccc(NS(=O)(=O)c2cccs2)cc1)N1CCN(c2ccccc2Cl)CC1
 : nt, 16%, -21%, -44%[inhibitor], 2.1, -1.2%, 3.7
(44) CC1(C)C[C@H](O)[C@@]23C[C@@H](OC2=O)[C@]2(C)C(=CCC4[C@@]5(C)CC[C@H](O)C(C)(C)C5CC[C@]42C)[C@@H]3C1 (some centres undefined)
 : -1.1%, nt, 5%, -10%, nt, 0.1%, -0.4
(45) Cc1ccc(NC(=O)c2ccoc2C)cc1C
 : 1.2%, 5%, 10%, -2%, 8.7, 0.6%, -3.0
(46) Cc1[nH]n(C(N)=S)c(=O)c1N=Nc1ccc(Br)cc1
 : -0.5%, 14%, -9%, 4%, -0.4, 0.6%, -7.3
(47) CCOc1cc(/C=N/NC(=O)c2ccncc2)cc(Cl)c1OS(C)(=O)=O
 : 2.0%, 14%, -1%, -2%[15.4 µM], 3.1, 1.9%, 10.0
(48) O=C(CCC(=O)c1cccs1)NCc1ccncc1
 : nt, 11%, 19%, -12%[15.4 µM], 4.3, 0.3%, -0.9
(49) CCOC(=O)c1cn(Cc2c(C)c(C)c(C)c(C)c2C)nn1
 : -12%, -7%, -2%, 10%[15.4 µM], -1.0, 9.1%, -1.8
(50) O=C(COC(=O)/C=C/c1cc(Br)ccc1F)Nc1ccc2[nH]c(=O)[nH]c2c1
 : nt, nt, 4%, -4%[15.4 µM], nt, 7.2%, 1.2
(51) CSCc1nc2scc(-c3ccccc3)c2c(=O)[nH]1
 : -3.8%, 21%, -2%, -41%, 1.5, 1.5%, -0.5
(52) COc1cc([N+](=O)[O-])cc(/C=N/NC(=O)c2cncc(Br)c2)c1O
 : 2.1%, -4%, -24%, 3%, 23, -1.0%, -6.1
(53) NCCNC(=O)c1c(O)c2cccc3c2n(c1=O)CCC3
 : -1.7%, 6%, -7%, -9%[15.4 µM], -2.6, -1.4%, -2.8
(54) C[C@@H]1CCCCO[C@H](CN(C)C(=O)Nc2ccc(C(F)(F)F)cc2)[C@@H](C)CN([C@H](C)CO)C(=O)c2cc(NC(=O)Nc3ccc4c(c3)OCO4)ccc2O1
 : -24%, nt, nt, nt, nt, 0.5%, -3.3

Screening results deposited in PubChem by National Center for Advancing Translational Sciences (NCATS).
